Screening results as filed in PubChem BioAssay.
FEN1 inh – blocks human flap endonuclease 1 | Recombinant FEN1 flap cleavage, fluorescence, 15 min | 390,000 tested, 0.35% active | Potency, µM (top dose mostly 114 µM), inactives show top-dose activity change, negative = inhibition, actives largely listed as inhibitors | P39748; also: nearly all actives have a fitted effect of over 65% in size
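FEN1 at 10 nM, compound pretreatment for 15 min (room temperature), 50 nM final substrate to initiate; endpoint reads at 0 and 15 min; DMSO-only plates used as vehicle background.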
KAT2A inh – GCN5L2 (KAT2A) acetyltransferase inhibition | Q92830 | 390,000 tested, 0.21% active | Potency, µM (series often up to 58.9 µM), inactives show at the highest dose activity change, negative = inhibition, usual class: inhibitors | GCN5L2 HAT assay, ThioGlo1 CoA-SH fluorescence
Target sequence (Q92830 whole entry, looked up): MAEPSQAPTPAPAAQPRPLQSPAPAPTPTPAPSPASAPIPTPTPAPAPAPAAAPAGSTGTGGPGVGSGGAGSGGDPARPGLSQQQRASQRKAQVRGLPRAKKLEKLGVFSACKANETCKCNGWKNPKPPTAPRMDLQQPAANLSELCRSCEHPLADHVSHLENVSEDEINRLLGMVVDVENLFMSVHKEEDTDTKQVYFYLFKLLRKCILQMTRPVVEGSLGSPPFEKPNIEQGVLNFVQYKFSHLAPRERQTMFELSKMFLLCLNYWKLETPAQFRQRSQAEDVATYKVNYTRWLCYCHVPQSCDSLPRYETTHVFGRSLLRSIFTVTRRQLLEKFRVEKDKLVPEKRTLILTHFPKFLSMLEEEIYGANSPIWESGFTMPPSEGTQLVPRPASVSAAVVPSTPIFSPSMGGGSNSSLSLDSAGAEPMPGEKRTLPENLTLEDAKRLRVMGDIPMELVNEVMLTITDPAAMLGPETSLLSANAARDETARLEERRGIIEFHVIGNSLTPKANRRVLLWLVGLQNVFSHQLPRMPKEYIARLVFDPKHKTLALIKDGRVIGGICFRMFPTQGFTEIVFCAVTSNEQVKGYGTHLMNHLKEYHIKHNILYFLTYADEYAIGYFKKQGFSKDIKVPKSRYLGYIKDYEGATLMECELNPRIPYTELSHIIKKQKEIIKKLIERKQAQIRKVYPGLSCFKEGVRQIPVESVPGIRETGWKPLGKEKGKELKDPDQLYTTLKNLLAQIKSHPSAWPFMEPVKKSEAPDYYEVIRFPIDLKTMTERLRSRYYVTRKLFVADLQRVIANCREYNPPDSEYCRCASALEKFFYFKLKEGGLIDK
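Free CoA generated was detected with ThioGlo1 (50uM) fluorescence at Ex340nm/Em540nm, read immediately and after 20 min at room temperature. Enzyme, 20 nM in HEPES pH 7.5 buffer, saw compounds 15 min before adding 75uM H3(1-25) peptide and 70uM acetyl-CoA.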
Numbers without * were called inactive; ? = inconclusive; / = no result given; & = joins results of further samples. Calls follow the shape of the dose curve; as a rule, active = well fitted curve in the direction sought with a large enough effect; inconclusive = small, poorly fitted or top-dose-only effect, or another doubt; inactive = no such curve, though single readings can be large; an effect the other way counts as inactive or inconclusive. % is scaled to controls: 0 for no effect and ±100 for the full control effect; potency is read from the fitted curve at half-maximal effect. This is a subset; most or all hits stand in other tables.

Structure | FEN1 inh | KAT2A inh
CC1CN(C(=O)Nc2ccc(Br)cc2Cl)CC(C)O1 (configuration not stated) | 5% | 4%
COc1ccc(C(=O)NCCS(=O)(=O)NCc2ccccc2)cc1 | -2% | -9%
CC(=O)Nc1ccc(C(O)(C(F)(F)F)C(F)(F)F)cc1 | -2% | -10%
CCCCNC(=O)OCC(CC)NC(=O)OCC(C)C (configuration not stated) | 5% | -1%
Cc1ccc(-c2nc3ccccc3s2)cc1NC(=O)COc1ccccc1 | 5% | -2%
C/C(=N\Nc1ccccc1Cl)c1ccc(-n2ccnc2)cc1 | -5% | -2%
O=C(C(NS(=O)(=O)c1cccc2nsnc12)c1ccccc1)N1CCN(c2ccccn2)CC1 (configuration not stated) | 1% | -20%
CS(=O)(=O)c1ccc2nc(NC(=O)C3CCCCC3)sc2c1 | 4% | 0%
COc1cc(-c2nc(CCNC(=O)c3ccco3)cs2)cc(OC)c1OC | -4% | -13%
O=C(CN1CCN(Cc2ccccc2Cl)C1=O)NCc1ccccc1Cl | 10% | 2%
Cc1ccc(NC(=O)c2ccc(=O)n(Cc3ccccc3C)c2)c(C)c1 | -15% | -3%
CCC(=O)Nc1nc2ccccc2n1Cc1ccccc1Cl | -4% | -15%
NS(=O)(=O)c1ccc(NC(=O)COC(=O)/C=C/c2ccc([N+](=O)[O-])cc2)cc1 | 1% | 0%
O=C(CSc1nc(-c2ccco2)cc(C(F)(F)F)n1)N1CCN(c2ccc(Cl)cc2)CC1 | -3% | -9%
CSC1CCCCC1(O)CSc1nc2ccccc2o1 (configuration not stated) | -9% | -11%
CC(C)C(NS(=O)(=O)c1cccc2cccnc12)C(=O)Nc1ccc(OC(F)(F)F)cc1 (configuration not stated) | 4% | -12%
Cc1ccc(NC(=O)CN(C)C(=O)c2ccc(COc3ccccc3)cc2)cc1 | -8% | -5%
O=C(CNS(=O)(=O)c1ccc(Br)cc1)NCc1ccncc1 | -1% | -3%
CC(C)(C)c1ccc(OCCCC(=O)Nc2cccc(S(=O)(=O)N3CCOCC3)c2)cc1 | ? | -20%
O=C(CC1Nc2cccc3cccc(c23)NC1=O)Nc1ccc(F)cc1 (configuration not stated) | ? | -4%&-10%
c1ccc(-n2c(-c3cccs3)nc3nc4ccccc4nc32)cc1 | 6% | 22%
COc1cccc(C(=O)OCC(=O)N2CCc3ccccc3C2)c1OC | 7% | 0%
CCOC(=O)c1cnc2ccc(OCC)cc2c1Nc1ccc(OCc2ccccc2Cl)cc1 | 5% | -7%
CCN(c1ccc(C)cc1C)S(=O)(=O)c1nnc(NC(=O)c2ccc(F)cc2)s1 | 2% | -10%
C[C@@H]1CN(c2nc3nonc3nc2N2CCSCC2)C[C@H](C)O1 | 12% | -19%
COC(=O)CN(c1ccc(C)cc1)S(=O)(=O)c1c(C)[nH]c(=O)[nH]c1=O | 0% | -8%
Cc1occc1C(=O)NC(C)c1ccc2c(c1)OCO2 (configuration not stated) | 6% | -18%
CNc1nc(-c2ccc3c(c2)CCN3C(=O)c2ccccc2F)cs1 | -13% | -9%
Cc1ccc(S(=O)(=O)N2CCN(C(=O)c3ccc(N4CCCC4)c([N+](=O)[O-])c3)CC2)cc1 | -3% | -7%
CC(C)(C)NC(=O)CN(C(=O)CNS(=O)(=O)c1ccc(Cl)cc1)c1ccc2c(c1)OCCO2 | -1% | 0%
C=CCn1c(C)cc(C(=O)COc2ccc(S(=O)(=O)N3CCCC3)cc2[N+](=O)[O-])c1C | -6% | -7%
CC(=O)c1ccc(NC(=S)NCCCn2ccnc2)cc1 | 2% | 4%
CCCCn1c(N)c(N(CCC(C)C)C(=O)c2cc(CC)c(C)s2)c(=O)[nH]c1=O | -3% | -1%
COc1cccc2c1Oc1ncccc1N(c1ccc(C(=O)NCc3ccccc3Cl)s1)C2 | 5% | 11%
O=S(=O)(c1ccc(Cl)cc1)n1nnc2ccccc21 | -5% | -10%
COc1cc(NC(=O)c2ccc3c(c2)OCO3)ccc1NC(=O)c1cccs1 | -2% | 0%
Cc1ccccc1NC(=O)CN(C)S(=O)(=O)c1cccc2cccnc12 | 5% | -5%
CCOc1ccc(C(NC(=O)c2cc(OC)c(OC)c(OC)c2)c2cc(Cl)c3cccnc3c2O)cc1 (configuration not stated) | -16% | -10%
CS(=O)(=O)Cc1cccc(C(=O)NN(c2ccccc2)c2ccccc2)c1 | -7% | -2%
Cc1ccc(-c2csc3ncn(Cc4ccc(C(=O)O)cc4)c(=O)c23)cc1C | -9% | -6%
C=CCn1c(Cc2c[nH]c3ccccc23)n[nH]c1=S | -9% | 1%
Cc1ccc(-n2nc3cc(C)c(NC(=S)NC(=O)/C=C/c4ccco4)cc3n2)cc1 | 5% | -11%
Cc1cc(C=O)c(C)n1-c1cc(C(F)(F)F)ccc1N1CCOCC1 | 2% | /
COc1ccc(S(=O)(=O)N2CCCCC2)cc1NC(=O)c1ccc(=O)[nH]c1 | -1% | 5%
Cc1ccc(S(=O)(=O)N(C)C[C@@H]2Oc3c(NC(=O)C4CC4)cccc3C(=O)N([C@@H](C)CO)C[C@@H]2C)cc1 | -6% | -1%
Cc1ccc(F)c(CNC(=O)C2CCC(=O)N(CCCN3CCCC3=O)C2)c1F (configuration not stated) | 17% | 3%
CC(OC(=O)CN(C)S(=O)(=O)c1ccc(Cl)cc1)C(=O)Nc1cccc(Cl)c1 (configuration not stated) | 2% | -11%
N#Cc1nc(-c2ccc(OCc3ccccc3)cc2)oc1NCc1cccnc1 | -1% | -13%
CC(C)(O)C#Cc1ccc(C(=O)NCCc2ccc(S(N)(=O)=O)cc2)cc1 | -3% | -1%
C=CCN(C(=O)CNS(=O)(=O)c1ccccc1)C(C(=O)NCCOC)c1ccncc1 (configuration not stated) | -1% | ?
COC(=O)C(CC(=O)c1ccc(C)cc1)n1nc(C)cc1C (configuration not stated) | 27% | 0%
CC(CCCC(C)(C)O)NC(=O)c1ccc(OC2CCN(C(=O)C3CC3)CC2)cc1 (configuration not stated) | 6% | -1%
O=C(NNC(=O)c1ccccc1[N+](=O)[O-])c1ccc(NC(=O)c2ccccc2)cc1 | -1% | -4%
COc1ccc(NC(=O)c2csc(Cc3ccccc3)n2)cc1 | -12% | 2%
COc1ccc(N2CCN(C(CNC(=O)CC(C)C)c3ccc4c(c3)OCO4)CC2)cc1 (configuration not stated) | -9% | 2%
Cn1ncc(Br)c1N1C(=O)CCC1=O | 0% | 1%
Cc1nccn1CCC(=O)O | 3% | 2%
NC(=O)c1ccc(NC(=O)COC(=O)c2ccc3ccccc3n2)cc1 | -2% | -1%
O=C1CC2(CCCC2)CC(=O)N1CCCCN1CCN(c2ncccn2)CC1 | 9% | -1%&-9%
COc1ccc(N(C(=O)Cc2cccs2)C(C(=O)NC2CCCC2)c2ccncc2)cc1OC (configuration not stated) | 1% | -2%

(list continues)
Structure | FEN1 inh | KAT2A inh
CCN(c1ccccc1)S(=O)(=O)c1ccc(NC(=O)c2cc(=O)c3cc(C)cc(C)c3o2)cc1 | 25% | -6%
CN(C)CCn1c2c(c(SCC(=O)NCc3ccccc3)nc1=O)CCC2 | 0% | 1%
c1cc2c(cc1-n1cnnn1)OCO2 | -5% | -2%
O=C1CCC2(C(=O)O)Sc3ccccc3N12 (configuration not stated) | -7% | -2%
COCCN(C(=O)c1ccc(-c2ccc(Cl)cc2)o1)c1c(N)n(Cc2ccccc2)c(=O)[nH]c1=O | -6% | -5%
COc1ccccc1N1CCN(/N=C/c2ccc(OC)c(OC)c2OC)CC1 | 12% | 4%
CC(C)CCN1CCN(Cc2nc(-c3ccccc3)cs2)CC1CCO (configuration not stated) | -1% | -1%
O=C(OCC(=O)N1CCCC1=O)C1CCN(S(=O)(=O)c2c(Cl)cccc2Cl)CC1 | 1% | -9%
CCn1c(P(C)(=O)O)nc2cc(NC(=O)c3ccccc3Cl)ccc21 | 10% | -3%
CCOc1ccc(N2CC(NC(=O)Cc3ccccc3)CC2=O)cc1 (configuration not stated) | -1% | 0%
CC(=O)N1CCN(C(=O)c2cccc(S(=O)(=O)N3CCN(c4ccccc4)CC3)c2)CC1 | -14% | 1%
CCc1nccn1CCC(=O)N1CCCC(N2CCN(c3ccccc3C)CC2)C1 (configuration not stated) | 1% | -2%
Cc1cccc(NC(=O)CSCC(=O)Nc2ccccc2N2CCCC2)c1 | -16% | -23%
COCCN(C(=O)COC(=O)c1ccc(Cl)nc1)c1c(N)n(Cc2ccccc2)c(=O)[nH]c1=O | -2% | -14%
COc1ccc(C(=O)NC2CC2)cc1OC1CCN(Cc2cc(C)c(C)cc2C)CC1 | 7% | ?

At a glance, 15 of the compounds above.
Structure | FEN1 inh | KAT2A inh
CCN(c1ccccc1)S(=O)(=O)c1ccc(NC(=O)c2cc(=O)c3cc(C)cc(C)c3o2)cc1 | 25% | -6%
CN(C)CCn1c2c(c(SCC(=O)NCc3ccccc3)nc1=O)CCC2 | 0% | 1%
c1cc2c(cc1-n1cnnn1)OCO2 | -5% | -2%
O=C1CCC2(C(=O)O)Sc3ccccc3N12 (configuration not stated) | -7% | -2%
COCCN(C(=O)c1ccc(-c2ccc(Cl)cc2)o1)c1c(N)n(Cc2ccccc2)c(=O)[nH]c1=O | -6% | -5%
COc1ccccc1N1CCN(/N=C/c2ccc(OC)c(OC)c2OC)CC1 | 12% | 4%
CC(C)CCN1CCN(Cc2nc(-c3ccccc3)cs2)CC1CCO (configuration not stated) | -1% | -1%
O=C(OCC(=O)N1CCCC1=O)C1CCN(S(=O)(=O)c2c(Cl)cccc2Cl)CC1 | 1% | -9%
CCn1c(P(C)(=O)O)nc2cc(NC(=O)c3ccccc3Cl)ccc21 | 10% | -3%
CCOc1ccc(N2CC(NC(=O)Cc3ccccc3)CC2=O)cc1 (configuration not stated) | -1% | 0%
CC(=O)N1CCN(C(=O)c2cccc(S(=O)(=O)N3CCN(c4ccccc4)CC3)c2)CC1 | -14% | 1%
CCc1nccn1CCC(=O)N1CCCC(N2CCN(c3ccccc3C)CC2)C1 (configuration not stated) | 1% | -2%
Cc1cccc(NC(=O)CSCC(=O)Nc2ccccc2N2CCCC2)c1 | -16% | -23%
COCCN(C(=O)COC(=O)c1ccc(Cl)nc1)c1c(N)n(Cc2ccccc2)c(=O)[nH]c1=O | -2% | -14%
COc1ccc(C(=O)NC2CC2)cc1OC1CCN(Cc2cc(C)c(C)cc2C)CC1 | 7% | ?

The listing continues:
Structure | FEN1 inh | KAT2A inh
COc1ccc(Cc2noc(CN(C)CC3(N4CCOCC4)CCCCC3)n2)cc1OC | -13% | -4%
CCc1cc(Cn2nc(-c3ccccc3)cc2C(=O)NCc2cccc(C(F)(F)F)c2)on1 | -8% | -13%
CCc1ccc(NC(=O)c2ccccc2NC(=O)C2CCCO2)cc1 (configuration not stated) | 0% | -11%
COc1ccc(CC(=O)NNC(=S)Nc2ccccc2)cc1Cl | -7% | -14%
COc1ccc(N/C(N)=N/c2nc(CSc3ccc(C)cc3)cc(=O)[nH]2)cc1 | -7% | -7%
O=C(NCCc1ccccc1)c1ncn[nH]1 | -11% | -4%
CCc1cc2c(=O)c(-c3cnn(-c4ccccc4)c3)coc2c(CN2CCOCC2)c1O | -2% | 0%
CCn1c(CNC(=O)c2ccc(OC)cc2)nnc1SCC(=O)Nc1ccc(F)cc1 | 17% | -4%
O=C(COc1cccc2ccccc12)NNC(=O)[C@@H]1CCCC[C@@H]1C(=O)O | -6% | 1%
COc1ccccc1CNC(=O)COC(=O)C1CC1 | 2% | -6%
O=C(CCS(=O)(=O)c1ccc(Cl)cc1)Nc1nc(-c2cccnc2)cs1 | 5% | -3%
O=C(NC1CCCCC1)C(=S)NCCc1ccccc1 | -1% | -11%
Cc1cnc(NC(=O)c2ccc(OCC3CCCO3)cc2)s1 (configuration not stated) | -3% | -1%
Cc1ccc(N(Cc2ccccc2)C(=O)CN2C(=O)NC3(CCCC3)C2=O)cc1 | -4% | 0%
O=C(CCCn1c(=O)c2cccn2c2ccc(F)cc21)NCCc1ccccc1 | 17% | -5%
Cc1nn(CCc2nn[nH]n2)c2nc(-c3ccc(C4CCCCC4)cc3)cc(C(F)(F)F)c12 | ? | -25%
COc1ccccc1Cn1c(=S)[nH]c2cc(C(=O)N3CCCC3)ccc2c1=O | -6% | -24%
CCOc1ccccc1NC(=O)N1CC(CC)Oc2ccccc21 (configuration not stated) | 24% | -10%
Cc1ccc(S(=O)(=O)N2CCCCC2)cc1C(=O)Nc1ccc2cn[nH]c2c1 | -6% | -9%
CNC(=S)N/N=C(\C)c1cccc(C(F)(F)F)c1 | -7% | -2%
CN(C)C(=O)NCc1ccc(S(N)(=O)=O)cc1 | 3% | 1%
Cc1cccc(N2CCN(C(=O)c3ccc4nccnc4c3)CC2C)c1 (configuration not stated) | 6% | -1%
CC(C)Oc1ccc(CSc2ncn[nH]2)cc1 | 5% | ?
CCOC(=O)CCCSc1nnc(CCCCCN2C(=O)c3cccc4cccc(c34)C2=O)o1 | ? | ?
CCn1nnnc1-c1ccc(OC)c(S(=O)(=O)N2CCCCC2)c1 | 10% | 0%
O=C1N/C(=C/c2ccco2)C(=O)N1Cc1ccccc1F | -3% | -20%
